Assay outcomes as filed in PubChem.
MLL AF4-AF9 inh: MLL-AF4/AF9 protein interaction inhibition; inhibition, % at 10 µM; P42568; 0.47% of 350,000 active; AlphaScreen, biotin-AF4 peptide binding to FLAG-AF9;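 active = every replicate reaching a set inhibition limit, whatever the replicate mean, cut at about 25% in these data; inconclusive = mean inhibition reaches that limit but some replicates miss it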;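 also: 0% = plate neutral control median and 100% = total signal loss; the record names both 10 and 1 µM as test concentration; the first replicate is given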
Target sequence (P42568 whole entry, looked up): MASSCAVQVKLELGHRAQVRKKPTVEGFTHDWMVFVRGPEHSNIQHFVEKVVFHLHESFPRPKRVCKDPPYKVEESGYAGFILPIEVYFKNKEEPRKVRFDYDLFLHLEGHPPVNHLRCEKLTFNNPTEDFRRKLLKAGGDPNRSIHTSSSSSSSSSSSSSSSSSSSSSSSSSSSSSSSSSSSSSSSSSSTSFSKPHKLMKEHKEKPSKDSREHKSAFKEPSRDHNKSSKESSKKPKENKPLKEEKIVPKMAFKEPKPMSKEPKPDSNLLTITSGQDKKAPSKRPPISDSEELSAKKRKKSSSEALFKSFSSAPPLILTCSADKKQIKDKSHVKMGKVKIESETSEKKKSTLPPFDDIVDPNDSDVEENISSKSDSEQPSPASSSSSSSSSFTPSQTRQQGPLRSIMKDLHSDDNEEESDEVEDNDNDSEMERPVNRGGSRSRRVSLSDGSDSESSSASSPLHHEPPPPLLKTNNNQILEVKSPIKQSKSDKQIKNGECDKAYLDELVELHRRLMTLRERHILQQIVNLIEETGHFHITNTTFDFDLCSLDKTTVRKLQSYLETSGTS
Ecoli rRNA inh: inhibitors of bacterial rRNA selective over humanized ribosomes | E. coli WT GFP vs humanized-ribosome RFP mutants, fluorescence, 24 h; stronger effect = lower value; DMSO median 0, no signal -100 | GFP signal change (wild-type ribosome), % (concentration not given with the values) | 1.6% of 350,000 active | AID 720706;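 active = significant combined selectivity score with lowered wild-type GFP, culture density cut under 30%, mutant RFP and density less affected; inactive = any of these conditions unmet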; also: one replicate is shown; some compounds called inactive have numbers as strong as hits
T cruzi repl: T. cruzi replication inhibition. 1.4% of 300,000 active. T. cruzi beta-gal in NIH3T3, luminescence, 90 h. AID 1885. inhibition, % (concentration not given with the values);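 active = mean inhibition across valid replicates above about 55%, limit read from the data; inconclusive = mean below that limit but half or more replicates reach it; inactive = mean below it, under half of replicates reach it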;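 also: signal also drops with host cell toxicity which is not excluded here; 0% = plate median of DMSO wells and 100% = zero luminescence signal; higher percent means less beta-gal luminescence so fewer parasites; stock transfer was 50 nL into about 50 µL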
ALR H2O2 inh: inhibitors of human sulfhydryl oxidase ALR | purified ALR, DTT oxidation, H2O2 HRP-luminol luminescence | inhibition, % (concentration not given with the values) | AID 485317 | P55789 | 3.8% of 290,000 active;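 active = mean and each replicate at 75% or more; inconclusive = only one of the two met; inactive = neither met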;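 also: stock transfer was 7.5 nL into about 7.5 µL; 0% = neutral wells and 100% = wells with inactivated enzyme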
Target sequence (P55789 whole entry, looked up): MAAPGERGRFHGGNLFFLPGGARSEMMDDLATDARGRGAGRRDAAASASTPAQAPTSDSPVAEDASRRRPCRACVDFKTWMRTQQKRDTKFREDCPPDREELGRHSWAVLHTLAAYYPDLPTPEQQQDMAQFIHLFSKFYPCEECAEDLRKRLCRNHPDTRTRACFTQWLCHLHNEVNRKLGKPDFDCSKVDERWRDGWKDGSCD
Beta cell apopt: blocks beta cell apoptosis. INS-1E cytokine-induced death, ATP luminescence, 48 h; percent of positive-control rescue, neutral wells zero. protection from apoptosis, % (concentration not given with the values). 0.8% of 300,000 active. AID 435005;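 active = all replicates at 75% or more, or half of them and the mean; inconclusive = half reach 75% but not the mean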;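 also: 0% = cytokine-treated negative control wells and 100% = positive control rescue; higher means more ATP so stronger rescue from cytokine killing; wells of about 40 µL received 100 nL stock; the first replicate is given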
Calb FLC: C. albicans growth modulation with fluconazole; C. albicans CaCi-2 (fluconazole-resistant clinical isolate) + fluconazole, Alamar Blue growth, 48 h; growth inhibition, % (no concentration beside the values); 0.57% of 300,000 active;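 active = most replicates above 75%; inconclusive = exactly half above 75%; inactive = most below 75%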;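 also: all wells also contain fluconazole at 8 µg/ml as a sub-toxic cotreatment; 0% = median of DMSO wells and 100% = median of geldanamycin control wells; wells of about 8 µL received 7.5 nL stock; the first replicate is given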
RanGTP-Imp inh: inhibitors of RanGTP-importin-beta interaction, primary screen, biochemical, FRET, CFP-Ran, YFP-importin-beta, homogeneous; cell-free CFP-Ran/YFP-importin-beta FRET ratio; inhibition, % (test concentration not listed); 1.1% of 300,000 active; AID 2216;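 active = most replicates above 15%; inconclusive = exactly half above 15%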;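 also: 0% = DMSO wells and 100% = Ran loaded with GDP instead of GTP; wells of about 40 µL received 100 nL stock; the first replicate is given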
FGF22 binding: binders of recombinant human FGF22 by thermal shift | 1.5% of 340,000 active | calls only at 9.99 µM | SYPRO orange fluorescence; percent of sucrose octasulfate shift, DMSO zero | AID 651658 | Q9HCT0;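 active = melting point raised past a set limit in the mean and every replicate; inconclusive = no clear call; three in four hits are not shown here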
Target sequence (Q9HCT0 whole entry, looked up): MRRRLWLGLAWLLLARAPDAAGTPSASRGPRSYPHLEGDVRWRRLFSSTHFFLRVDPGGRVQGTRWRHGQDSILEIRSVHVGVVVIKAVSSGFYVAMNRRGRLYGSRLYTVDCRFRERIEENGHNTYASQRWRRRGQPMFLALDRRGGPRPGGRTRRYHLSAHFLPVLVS
Ecoli rRNA inh OD600: further read-out of Ecoli rRNA inh, marked with its call; OD600 change, %; measured here: OD600 growth;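 optical density of the mix in the first replicate; 0 = DMSO median and -100 = no signal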
Ecoli rRNA inh RFP: second read-out of Ecoli rRNA inh, no call of its own (marks repeat the call); RFP signal change, %; measured here: RFP humanized mutant strains;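 first replicate; 0 = DMSO median and -100 = no signal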
* = called active by the depositor; i = inactive; ? = inconclusive; / = no result given; + = active, no number.

Start of the listing, in advance, ten compounds:
SMILES	MLL AF4-AF9 inh	Ecoli rRNA inh	Ecoli rRNA inh OD600	Ecoli rRNA inh RFP	T cruzi repl	ALR H2O2 inh	Beta cell apopt	Calb FLC	RanGTP-Imp inh	FGF22 binding
CC1=CC(C)(C)n2c(O)c(N=NC(N)=S)c3c(C)ccc1c32	/	/	/	/	22.5	5.6	-3.1	16.0	-1.4	/
COc1ccccc1OCc1cc(-c2ccccc2)no1	-2.4	-26.8	-34.0	-2.3	9.2	-10.0	-7.8	-14.6	-3.8	i
CCc1ccc(OCCNC(=O)c2cc(SC)ccc2Cl)cc1	/	/	/	/	18.8	-1.8	6.0	-4.9	-2.3	/
O=C(NNC(=O)C12CC3CC(CC(C3)C1)C2)c1cccc(O)c1	1.0	3.0	6.3	2.2	0.0	/	3.1	-13.9	1.3	i
NS(=O)(=O)c1ccc(Nc2nc(-c3ccc(O)cc3)cs2)cc1	/	/	/	/	-1.6	?	-2.0	-16.5	3.4	/
CCOc1ccccc1NC(=O)C1CCCN(S(=O)(=O)c2ccc(OC)c(C)c2)C1 (centres undefined)	/	/	/	/	10.7	-19.4	1.4	-1.2	0.3	/
CCOC(=O)C1C(=O)NC(SCC(=O)Nc2nccs2)=C(C#N)C1c1ccccc1OCC (centres undefined)	/	/	/	/	-3.7	4.0	-8.1	-13.3	3.0	/
CCOc1ccc(C)cc1S(=O)(=O)N1CCCCC1	/	2.7	-8.1	5.2	8.5	-2.7	-1.0	-25.3	-1.9	/
Cc1cc(C)c2c(-n3cccc3)c(C(=O)NNS(=O)(=O)c3ccc(Br)cc3)sc2n1	/	/	/	/	-0.2	88.3*	-2.3	31.6	-4.2	/
C#CCn1c(=NC(=O)CN2C(=O)CCC2=O)sc2cccc(OC)c21	-14.3	-2.4	-5.6	-1.1	-9.8	/	-6.1	2.8	-0.5	i

This part in full, previewed entries included:
SMILES	MLL AF4-AF9 inh	Ecoli rRNA inh	Ecoli rRNA inh OD600	Ecoli rRNA inh RFP	T cruzi repl	ALR H2O2 inh	Beta cell apopt	Calb FLC	RanGTP-Imp inh	FGF22 binding
CC1=CC(C)(C)n2c(O)c(N=NC(N)=S)c3c(C)ccc1c32	/	/	/	/	22.5	5.6	-3.1	16.0	-1.4	/
COc1ccccc1OCc1cc(-c2ccccc2)no1	-2.4	-26.8	-34.0	-2.3	9.2	-10.0	-7.8	-14.6	-3.8	i
CCc1ccc(OCCNC(=O)c2cc(SC)ccc2Cl)cc1	/	/	/	/	18.8	-1.8	6.0	-4.9	-2.3	/
O=C(NNC(=O)C12CC3CC(CC(C3)C1)C2)c1cccc(O)c1	1.0	3.0	6.3	2.2	0.0	/	3.1	-13.9	1.3	i
NS(=O)(=O)c1ccc(Nc2nc(-c3ccc(O)cc3)cs2)cc1	/	/	/	/	-1.6	?	-2.0	-16.5	3.4	/
CCOc1ccccc1NC(=O)C1CCCN(S(=O)(=O)c2ccc(OC)c(C)c2)C1 (centres undefined)	/	/	/	/	10.7	-19.4	1.4	-1.2	0.3	/
CCOC(=O)C1C(=O)NC(SCC(=O)Nc2nccs2)=C(C#N)C1c1ccccc1OCC (centres undefined)	/	/	/	/	-3.7	4.0	-8.1	-13.3	3.0	/
CCOc1ccc(C)cc1S(=O)(=O)N1CCCCC1	/	2.7	-8.1	5.2	8.5	-2.7	-1.0	-25.3	-1.9	/
Cc1cc(C)c2c(-n3cccc3)c(C(=O)NNS(=O)(=O)c3ccc(Br)cc3)sc2n1	/	/	/	/	-0.2	88.3*	-2.3	31.6	-4.2	/
C#CCn1c(=NC(=O)CN2C(=O)CCC2=O)sc2cccc(OC)c21	-14.3	-2.4	-5.6	-1.1	-9.8	/	-6.1	2.8	-0.5	i
CN1CCN(CCCOc2ccc(-c3ccccc3)cc2)CC1	7.1	2.6	1.0	2.4	56.0*	-8.4	18.7	-2.6	6.0	i
Cc1ccc(C(=O)OCC(=O)N2CCOCC2)c(C)c1	-0.5	4.4	8.3	-3.2	-5.7	-2.2	-1.8	-2.4	3.8	i
C/C(=N\Nc1nc(N)cc(Cl)n1)c1cccc(N)c1	4.4	2.0	4.4	-1.0	-4.3	/	-1.4	16.3	1.1	i
Cc1cccc(-c2nsc(SCC(=O)Nc3cc(C)on3)n2)c1	/	/	/	/	-4.7	2.3	5.3	-20.5	-2.8	/
COc1ccc(CNC(=O)C2CCC(=O)N2C(C)C)c(OC)c1 (centres undefined)	-1.5	9.5	3.4	-1.9	-0.9	/	-3.9	0.9	-1.8	i
CCCn1c(SCC(=O)Nc2ccccc2Cl)n[nH]c1=O	-7.6	4.9	-0.3	-6.0	-16.2	/	-6.2	-14.2	-3.0	i
CCOC(=O)c1sc(NC(=O)COC(=O)C(CCSC)NC(C)=O)nc1C (centres undefined)	-2.3	2.7	16.5	-5.0	-1.1	-5.2	-3.5	1.8	-0.3	i
O=C(CSc1ncn(-c2ccccc2)n1)Nc1nccs1	/	/	/	/	-26.4	-0.9	/	3.7	6.0	/
CCCCN(C(=O)c1ccc(C)c(S(=O)(=O)N2CCOCC2)c1)c1c(N)n(CC(C)C)c(=O)[nH]c1=O	-1.8	-0.8	-4.5	0.2	-2.3	-4.9	-3.4	3.2	5.4	i
COc1ccc(S(=O)(=O)NC(C)C(=O)NCC2CCCO2)cc1OC (centres undefined)	-0.4	4.2	2.3	-2.1	-7.3	-6.1	-3.4	0.5	-1.5	i
O=C(NCCO)c1ccc(CSc2nc3ccccc3[nH]2)cc1	/	/	/	/	-12.2	/	-9.1	51.9	5.2	/
CCNC(=O)CC(=O)Nc1ccccc1C(=O)O	/	/	/	/	-23.2	-13.8	-8.6	-4.9	0.2	/
COC(=O)c1cc(Br)c(=O)n(Cc2ccc3c(c2)OCO3)c1	/	/	/	/	-13.7	1.7	0.2	-6.4	-1.5	/
COC(=O)c1ccc(COc2ccc(-c3nnn(CC(N)=O)n3)cc2)cc1	0.4	4.0	13.4	2.4	-1.5	-24.3	-0.9	-1.7	-3.8	i
Cc1cc(C)c(C#N)c(SCC(=O)Nc2ccccc2)n1	-2.7	25.8	12.4	-0.4	3.7	-3.3	-4.6	4.9	-2.5	i
COC(=O)c1ccc(N2CCN(S(=O)(=O)c3ccc(Br)cc3)CC2)c([N+](=O)[O-])c1	/	/	/	/	-1.3	-5.4	1.3	11.3	2.2	/
O=C(CN(C(=O)CCNC(=O)c1ccco1)c1ccccc1)NC1CCCC1	/	/	/	/	-1.7	-4.0	-4.8	0.9	-2.3	/
COc1ccc(Cl)cc1NC(=O)CSc1nnc(Cn2c(=O)sc3ccccc32)n1C	8.7	1.3	3.8	0.3	/	-11.2	-1.7	/	/	i
C(=C\c1ccccc1)/C=N/n1cnnc1	/	/	/	/	-9.3	-6.2	-0.3	-1.3	6.0	/
COc1nc(NS(=O)(=O)c2ccc(C)cc2)nc(C)c1Cl	/	/	/	/	-24.3	-0.5	-7.0	-1.6	3.8	/
CCN(NC(=O)C(O)(c1ccc(F)cc1)c1ccc(F)cc1)C(=O)c1ccccc1	/	/	/	/	-8.3	-4.3	/	6.7	3.4	/
CCOC(=O)N1CCN(C(=O)c2ccccc2N(Cc2ccccc2)S(=O)(=O)c2ccccc2)CC1	1.9	2.5	-7.0	-1.4	-18.8	-12.5	/	7.8	0.9	i
S=C(NCCc1ccccc1)Nc1ccccc1Cl	/	/	/	/	-6.2	-4.1	-2.7	-4.6	1.6	/
O=C(Nc1ccccc1)N(C1=NCCC1)c1ccccc1	-0.4	1.5	2.3	-0.1	-3.5	-5.6	1.9	-0.7	2.3	i
COc1ccc(OC)c(CCNC(=O)CS(=O)(=O)Cc2nc(-c3ccc(C)cc3)oc2C)c1	/	18.6	10.6	4.0	19.8	-7.6	3.8	-6.0	1.2	/
C#CCOc1c(Br)cc(/C=C2/C(=O)ON=C2C)cc1OC	-1.2	0.7	10.4	-0.9	0.2	37.7	-1.7	3.6	-3.2	i
CC(Sc1nnc(C(C)Oc2ccccc2F)o1)C(=O)NCc1ccc2c(c1)OCO2 (centres undefined)	3.0	-5.2	-15.6	5.8	/	/	0.3	/	/	i
Cc1ccc(NCC(O)C(O)C(O)CO)c(N=Nc2ccccc2)c1C (centres undefined)	1.3	-11.1	-3.7	-4.8	8.1	98.8*	-1.0	-1.9	?	i
O=C(NCc1cccc(Cl)c1)c1cccc(S(=O)(=O)N2CCCCC2)c1	-4.2	5.2	-7.8	-0.6	/	-0.3	1.1	/	/	i
C/C(=N/NC(=O)c1ccc(-c2ccccc2)cc1)c1cc(O)cc(O)c1	0.0	/	/	/	/	98.7*	-0.3	5.4	/	i
Cc1ccc(N=C2N=C(N)c3ccccc32)c(C)c1	/	/	/	/	8.8	1.5	-6.8	4.8	-0.8	/
CCCC(=O)Nc1nnc(/C=C/c2ccccc2)s1	-0.8	0.4	5.1	1.1	-5.1	-1.0	1.7	-51.3	-0.1	i
Cc1cc(OCC(=O)OCC(=O)N(C)Cc2ccccc2C)ccc1Cl	-7.2	/	/	/	/	-2.0	-5.1	/	/	i
C/C(=N/NC(=O)CNc1ccc(C)cc1)c1ccc(Cl)cc1	/	/	/	/	3.2	-1.6	/	-11.2	0.3	/
O=C(CCNS(=O)(=O)c1ccc(Br)s1)NCc1ccc2c(c1)OCO2	-1.2	-14.7	-6.8	-3.2	2.8	-3.7	-4.4	0.0	1.2	i
CC(C)NC(=O)NC(=O)CSc1nnc(COc2ccccc2Cl)o1	/	/	/	/	-9.3	-4.0	-0.2	1.9	8.6	/
CC(C)NC(=O)c1ccc(S(=O)(=O)N(C)C)cc1	-1.7	15.6	9.1	-2.2	-14.8	-2.8	-5.0	0.9	-3.6	i
CN(C(=O)CO/N=C/c1ccc(Cl)cc1)c1ccccc1	-1.1	1.2	1.6	0.4	11.4	-6.6	-5.1	-6.8	0.6	i
CCc1cccc(C)c1NC(=O)c1ccc(CN2CCc3ccccc3C2)cc1	-8.0	2.7	-4.8	-15.1	-9.6	-0.2	-2.4	17.0	2.3	i
CN1CCN(NC(=O)CN(C)S(=O)(=O)c2cc(Cl)ccc2Cl)CC1	-12.9	3.9	13.0	-2.1	-6.2	2.1	-1.0	24.8	-3.3	i
Cc1ccc2nc(C3CCCN(C(=S)Nc4cccc(C)c4C)C3)[nH]c2c1 (centres undefined)	/	/	/	/	32.5	-2.9	/	10.8	-2.6	/
O=C(NCc1cccnc1)c1ccccn1	/	/	/	/	4.5	-2.7	-6.2	2.8	2.5	/
COc1ccc([C@H]2CC(=O)C=C(c3ccc4c(c3)OCO4)C2)cc1OC	5.0	-13.7	-27.1	-8.2	/	-3.9	-1.1	/	/	+
Cc1oc2cc3oc(=O)c(CCC(=O)NCCCC(=O)O)c(C)c3cc2c1C	-15.1	-13.9	-9.9	-2.2	-5.9	51.5	-10.5	-0.8	-0.4	i

Some of the compounds tested (hit frequency here may not be typical).
